# Assay outcomes (PubChem)
# Anthrax LT inh: blocks cellular internalization of anthrax lethal toxin. Cells, anthrax lethal toxin internalization, FRET ratio (460/530). Potency, µM (top dose mostly 40 µM), inactives show top-dose activity change, negative = inhibition, actives largely listed as inhibitors. 0.67% of 70,000 active. AID 912; active = well fitted falling ratio curve with the 530 nm signal flat; inconclusive = other ratio curves, or a change in one channel alone; inactive = flat curves in the ratio and both channels; the % refers to the ratio; note: % is set by controls: 0 for no effect and ±100 for the full control effect; nearly all actives have a fitted effect of over 50% in size; tested in ME-180 cells; beta-lactamase reporter
# SmPrx2 inh: Schistosoma mansoni Prx2 inhibition | S. mansoni Prx2 activity coupled to TGR/GSH (TGR is thioredoxin glutathione reductase), NADPH fluorescence loss, qHTS; some inactives read as strong as hits | Potency, µM | 0.07% of 65,000 active | AID 448; active means full or partial inhibition curve with a strong effect at the top dose; inconclusive means weaker partial or single-point curve; inactive means no accepted curve; note: series up to 57 µM; many of its hits are not listed in these tables
#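 qHTS, coupled TGR/Prx2 format; 15 min compound preincubation at RT; reaction started with H2O2 (2.5 mM aliquot); kinetic NADPH fluorescence decrease, ex 365/em 450 nm.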
# An asterisk follows results filed as active; ? = inconclusive; / = not tested or not shown; & = joins results of further samples; [ ] = remark or other dose. Potency is the fitted concentration of half-maximal effect. A portion of the library; rates above refer to the full screens.
mol,Anthrax LT inh,SmPrx2 inh
Cc1ccc2nc(N3CCN(C(=O)c4cccs4)CC3)c(C#N)cc2c1,?,>57
CCCCOC(=O)CSc1nnc(N)s1,1.3%,/
COc1cc(C2=NOC(C(=O)NCc3ccco3)C2)cc(OC)c1OC (stereo not given),-13.8%,>57
Cc1nn(-c2ccccc2)c2sc(C(=O)N(CC(=O)NC(C)(C)C)Cc3ccco3)cc12,12.6µM*,>57
Cc1ccc(S(=O)(=O)c2c(C)nn(C(C)(C)C)c2OC(=O)c2cccs2)cc1,3.2%,>57
CCOC(=O)N1CCC(NC(=O)CN2C(=O)CCSc3ccccc32)CC1,3.8%,>57
O=P(O)(O)c1ccccc1OCCCCCOc1ccccc1P(=O)(O)O,0.6%,>57
CCOC(=O)C1C(C#N)=C(N)OC(C)=C1c1ccncc1 (stereo not given),-7.8%,>57
COc1cc(C2CC(=O)NC3=C2C(=O)CC(C)(C)C3)ccc1O (stereo not given),-1.4%,>57
Brc1ccc(C2=Nn3c(nnc3-c3cccnc3)SC2)s1,10.8%,>57
CC(=O)Nc1ccc(S(=O)(=O)N2CCN(CC(=O)NC3CCCC3)CC2)cc1,3.7%,>57
Cc1cc(C)c2cc(CN(CC3CCCO3)C(=O)NC3CCCCC3)c(=O)[nH]c2c1 (stereo not given),-4.1%,>57

# Next part
mol,Anthrax LT inh,SmPrx2 inh
CS(=O)(=O)Nc1ccc2c(c1)nc1n2CCOC1,12.5%,>57
O=C(COc1ccc(Br)cc1)N1CCCCCC1,8.6%,/
O=C(Nc1ccc(Cl)cc1)Nc1ccc(N2CCOCC2)cc1,-9.2%,>57
CC1(C)CNC(=O)C=C(c2ccccc2)C1,6.0%,>57
O=C(CCCn1c(=O)c2sccc2n(Cc2ccc(F)cc2)c1=O)NCc1ccco1,-16.7%,>57
Cc1onc(-c2c(Cl)cccc2Cl)c1C(=O)Nc1ccc2c(c1)OCCO2,?,>57
CCCCCC(C)n1[nH]c(=O)c2c(C)cc(C)nc21 (stereo not given),-3.8%,>57
COCCCn1c(=N)c(C(=O)NCC2CCCO2)cc2c(=O)n3cccc(C)c3nc21 (stereo not given),?,>57
CCOc1ccc(Cc2nccc3cc(OCC)c(OCC)cc23)cc1OCC,?,>57
Cc1ccc2cccc(SCC(=O)N3CCOCC3)c2n1,0.5%,>57
CC1(c2ccccc2)NC(=O)N(CCN2C(=O)c3ccccc3C2=O)C1=O (stereo not given),/,>57
COc1ccc(C(=O)CC(=O)c2c(O)cc(OC)cc2OC)cc1,?,/

# Continuation.
mol,Anthrax LT inh,SmPrx2 inh
Cn1c(Cc2ccccc2)nnc1SCC(=O)Nc1ccccc1N1CCOCC1,-10.1%,>57
COC(=O)CSc1nc2c(c(-c3ccco3)c1C#N)CCCC2,-28.7%,>57
C=CCn1c(SCC(=O)Nc2ccccc2C)nnc1-c1ccncc1,-2.3%,>57
CCN1CCN(c2ncc(C(=O)Nc3cc(Cl)c(OC)cc3OC)c3ccccc23)CC1,6.3%,>57
Cc1cc(N2C(=O)CC(N3CCC(n4c(=O)[nH]c5ccccc54)CC3)C2=O)no1 (stereo not given),6.1%,>57
Cn1c(=O)c2ccccc2n(Cc2ccccc2F)c1=O,-9.2%,>57
COc1cccc(-c2cncnc2NCc2cnc(C)cn2)c1,?,>57
CN(C)c1ccc(-c2nnc(-c3ccc(S(=O)(=O)C(F)F)cc3)o2)cc1,-10.5%,>57
CCCCNC(=O)CSc1nc2ccccc2c(=O)n1C1CCCC1,?,>57
CCOCCCNC(=O)c1ccccc1SCC,?,>57
COc1ccc2c(c1)-c1nc(NC(=O)c3ccco3)sc1CC2,-22.9%,>57
O=C(OCC(=O)N1CCOCC1)c1ccccc1SCC(=O)N1CCCC1,7.9%,>57

# Additional structures.
mol,Anthrax LT inh,SmPrx2 inh
CC(=O)c1c(N2CCCCC2)nc(=O)n(-c2ccccc2)c1C,13.5%,>57
Cc1cc(=O)n2nc(N3CCC(C(=O)NCc4cccnc4)CC3)sc2n1,-4.7%,>57
CCOc1ccccc1OCC(=O)Nc1nnc(COC)s1,7.7%,>57
CCOC(=O)CCCCC(=O)c1[nH]c(=O)[nH]c1CSc1nc(-c2ccccc2)c(C#N)c(=O)[nH]1,6.0%,>57
CC(C)[C@@H](CC(=O)N[C@@H]1CCCC[C@H]1C(=O)N[C@H](CC(=O)N[C@@H](CCC(=O)O)CC(=O)O)Cc1ccccc1)NC(=O)C[C@H](Cc1c[nH]c2ccccc12)NC(=O)[C@@H]1CNCC[C@H]1N,-23.0%,>57
COc1ccc(NC(=O)C2CCC(C)(C(=O)O)C2(C)C)cc1 (stereo not given),5.2%,>57
COc1ccc(-c2nnc(SCC(=O)OC3CCCCC3)o2)cc1OC,-4.5%,>57
O=C(Cn1nnc(-c2ccccc2)n1)NCc1ccc2c(c1)OCO2,-3.7%,>57
COC(=O)C1=C(C)NC(=O)C1(Nc1nccs1)C(F)(F)F (stereo not given),?,>57
CCOC(=O)N1CCC(N2Cc3cccc(C(=O)NCc4ccc(C)cc4)c3C2=O)CC1,?,>57
Clc1ccc(Cc2nnc(-c3ccccc3Br)o2)cc1,-9.3%,>57
N#Cc1ccc(Sc2nc3ccccc3[nH]2)cc1C#N,-7.5%,/

# (more compounds)
mol,Anthrax LT inh,SmPrx2 inh
Cc1ccccc1-n1c(C)nnc1SCC(=O)NCC1CCCO1 (stereo not given),2.0%,>57
Cc1nn2c(N3CCCC3)cc(C(C)C)nc2c1-c1ccccc1,-10.7%,>57
CCOc1cccc(NC(=O)CC#N)c1,10.2%,>57
O=C(CN1CCOCC1)N1CCCc2c1c(=O)oc1ccc(OCc3ccccc3)cc21,-10.5%,>57
CCS(=O)(=O)N1CCN(Cc2nc3ccccc3c(=O)[nH]2)CC1,11.5%,>57
COc1ccc(N=C(C)c2c(O)n(C3CCCCC3)c(=O)[nH]c2=O)c(OC)c1,-8.1%,>57
CCOC(=O)c1cnc(-n2nc(C)cc2C)nc1NCc1ccc2c(c1)OCO2,6.3%,>57
COc1ccc(/C(O)=C2/C(=O)C(=O)N(CCN(C)C)C2c2ccc(OC)c(OC)c2)c(C)c1 (stereo not given),-4.0%,>57
CCn1c(=O)n(CC(=O)N2CCN(c3ccccc3F)CC2)c(=O)c2ccccc21,-10.6%,>57
COc1ccc(CNC(=O)c2noc3c2CCCCC3)cc1,-2.0%,>57
COc1ccc(-n2c(=O)c(C)nc3cnc(N4CCOCC4)nc32)cc1,?,>57
COc1cc(OC)c(NC(=O)CCc2nc(-c3cccs3)no2)cc1Cl,-22.9%,>57

# Pulled by compound from the entries so far, 2 records:
mol,Anthrax LT inh,SmPrx2 inh
COc1ccc(CNC(=O)c2noc3c2CCCCC3)cc1,-2.0%,>57
O=C(CN1CCOCC1)N1CCCc2c1c(=O)oc1ccc(OCc3ccccc3)cc21,-10.5%,>57

# (next part)
mol,Anthrax LT inh,SmPrx2 inh
N[C@@H](C(=O)O)c1ccc(C(=O)O)c(C(=O)O)c1,?,>57&>57&>57
CCN1CCN(S(=O)(=O)c2cc(OC)ccc2OC)CC1,-5.9%,>57
O=C(O)CCc1ccc(-c2cccs2)n1NC(=O)c1ccccc1Br,11.1%,>57
CC(=O)Nc1ccc(S(=O)(=O)NCC2CCC(C(=O)N3CCN(c4ccccn4)CC3)CC2)cc1 (stereo not given),9.5%,>57
CCN=C(Nc1cccc(F)c1)SC1CC(=O)N(c2ccc(OC)cc2)C1=O (stereo not given),-13.8%,>57
CC(C)CNS(=O)(=O)c1ccc(CCC(=O)N2CCN(Cc3ccccc3)CC2)cc1,?,>57
COC(=O)c1sccc1NC(=O)c1ccoc1C,-12.4%,>57
NC(N)=NC(N)=Nc1cccc(Cl)c1,?,>57&>57
O=S(=O)(Nc1ccc2c(c1)OCCO2)c1cccs1,6.0%,>57
CCOc1ccc(-c2n[nH]c(C)c2Oc2ccccc2OC)c(O)c1,-30.6%,>57
CCc1nc2ccccc2c(=O)n1NC(=O)c1c(O)c2ccccc2[nH]c1=O,-12.3%,>57
O=C(CSc1ccc(Cl)cc1)c1ccco1,-24.2%,>57

# Remaining list, next part
mol,Anthrax LT inh,SmPrx2 inh
COCc1nn2c(N)c(C#N)cnc2c1-c1ccccc1,4.3%,>57
C/C(N)=C(/C#N)C(=O)CSc1nnnn1-c1ccc(C)cc1C,?,>57
Cc1ccc(C(=O)O)c(C(=O)Nc2nc(C)cs2)c1,2.6%,>57
O=C(NCCc1ccccn1)c1ccc(S(=O)(=O)N2CCCCCC2)cc1,-11.3%,>57
COCc1cc(C)nc2sc(C(=O)OC(C)C)c(N)c12,/,>57
CCOC(=O)N1CCC(Nc2c(N3CCN(c4cccc(C(F)(F)F)c4)CC3)c(=O)c2=O)CC1,-6.7%,>57
Cc1cc(NC(=O)c2oc3ccccc3c2C)ccc1-n1cnnn1,?,>57
Cc1nc2cnc(Oc3ccccc3)nc2n(Cc2cccs2)c1=O,-9.7%,>57
COc1cc(C(c2nnnn2C(C)(C)C)N2CCN(c3nc4ccccc4s3)CC2)ccc1O (stereo not given),-17.2%,>57
CN(C)S(=O)(=O)N1CCN(C(=O)c2ccccc2Cl)CC1,5.7%,>57
CN(C)Cc1nc2c([nH]1)c(=O)n(C)c(=O)n2C,?,>57
CCCCn1c(N)c(C(=O)OCC2CCCO2)c2nc3ccccc3nc21 (stereo not given),?,>57

# More structures:
mol,Anthrax LT inh,SmPrx2 inh
Cc1ccc2c(c1)cc(C)c1nnc(SCC(=O)NCc3ccco3)n12,-16.3%,>57
Cc1cc(C)n(-c2nncn2/N=C/c2ccccc2F)n1,-2.1%,>57
COc1cccc2sc(Nc3nnc(-c4cccs4)o3)nc12,2.8%,>57
CC(C)=CCC/C(C)=C/CN(CC(C)O)CC(C)O (stereo not given),-19.5%,>57
Cc1ccc(-c2cc(C(=O)NCc3ccco3)no2)cc1,-4.2%,>57
CCOC(=O)c1cc2ccccc2nc1C,2.6%,>57
CCCC(c1nnnn1Cc1ccccc1)N1CCC(C(N)=O)CC1 (stereo not given),1.4%,>57
COCCNC(=O)c1ccc(CS(=O)(=O)c2ccc(C)cc2)o1,18.4%,>57
CN(C)c1ccc(C2C3C(=O)NC(=O)C3ON2c2ccc(Cl)cc2)cc1 (stereo not given),-7.8%,>57
Cc1cc(-n2nc(C)cc2C)n2ncc(-c3ccccc3)c2n1,-7.7%,>57
O=C(Nc1ccc2c(c1)oc1ccccc12)c1ccncc1,?,/
O=C(c1cnccn1)N1CCC2(CCCN(Cc3ccncc3)C2)CC1,-0.9%,>57

# (next part)
mol,Anthrax LT inh,SmPrx2 inh
O=C1CC2(CCCCC2)Oc2ccc(O)cc21,7.8%,>57
CC(C)Sc1nc2c(cnn2-c2ccccc2)c(=O)[nH]1,9.2%,>57
COc1ccc2nc(/N=C\N(C)C)sc2c1,2.9%,>57
O=C(NCC(c1cccnc1)N1CCOCC1)Oc1ccccc1 (stereo not given),1.3%,>57
CCOc1ccc(/C(O)=C2/C(=O)C(=O)N(Cc3cccnc3)C2c2ccc(N(C)C)cc2)c(C)c1 (stereo not given),2.1%,>57
Cc1ccc2oc(=O)c3cnn(CC(=O)N4CCN(c5ccccn5)CC4)c3c2c1,16.5%,>57
CC(=O)N1CCCc2cc(S(=O)(=O)N(C)CCC#N)ccc21,-0.8%,>57
Cn1c(=O)c2[nH]c(CSCc3ccccc3)nc2n(C)c1=O,-6.1%[8 µM],>57
CCn1c(SCC(=O)c2ccc(NS(=O)(=O)c3ccccc3)cc2)nnc1-c1cccs1,-22.6%,>57
COCCn1nnnc1C(c1cc(OC)ccc1OC)N1CCc2ccccc2C1 (stereo not given),-16.7%,>57
CCOC(=O)c1c(C)c(C(=O)NCCCN2CCCC2=O)c(C)n1CC,-2.9%,>57
O=C(Oc1cccc(-n2cnnn2)c1)c1sc2ccccc2c1Cl,-6.2%,>57

# The list goes on; it opens with the 3 that closed the last part.
mol,Anthrax LT inh,SmPrx2 inh
COCCn1nnnc1C(c1cc(OC)ccc1OC)N1CCc2ccccc2C1 (stereo not given),-16.7%,>57
CCOC(=O)c1c(C)c(C(=O)NCCCN2CCCC2=O)c(C)n1CC,-2.9%,>57
O=C(Oc1cccc(-n2cnnn2)c1)c1sc2ccccc2c1Cl,-6.2%,>57
COc1cccc(-c2cc(C(=O)Nc3cnn(Cc4ccc(F)cc4)c3)no2)c1,0.0%,>57
CCC1CCCCN1Cc1nc2c(c(=O)n(C)c(=O)n2C)n1Cc1ccccc1 (stereo not given),-3.7%,/
CCNc1nc(NCC)n2c(SCc3ccc(F)cc3)nnc2n1,-25.8%,>57
CCC(=O)Nc1cc(C)c(NC(=O)C23CC4CC(CC(C4)C2)C3)cn1,-4.3%,>57
O=C(O)/C=C\c1cnc[nH]1,3.7%,>57
COc1cc(C2N=C(c3ccccc3)NO2)cc(Br)c1O (stereo not given),9.6%,>57
CSCC[C@@H](C(=O)Nc1ccc2c(c1)OCCO2)N1Cc2ccccc2C1=O,-7.0%,>57
CCC(CO)NC(=O)c1cccc(S(=O)(=O)N2c3ccccc3CC2C)c1 (stereo not given),-14.8%,>57
Fc1cc(Br)ccc1Nc1nc2ccccc2n2nnnc12,-18.5%,>57
CCOC(=O)n1c(SCC(=O)N(CC)CC)nc2ccccc21,9.6%,>57
